From PubChem BioAssay
Rango dissoc inh: qHTS Assay for Inhibitors of RanGTP induced Rango (Ran-regulated importin-beta cargo) - Importin beta complex dissociation | actives 0.071% (n = 340,000) | Potency, µM (series often up to 46.1 µM), without a hit: top-dose activity change, negative = inhibition | Snurportin-1 (Homo sapiens) + GTP-binding nuclear protein Ran (Homo sapiens) + Importin … | Biochemical FRET Rango-importin beta, RanGTP-induced dissociation | AID 540253, 2011; active means falling FRET ratio curve, often poorly fitted, with flat reads before Ran was added; inconclusive means other falling curves, or compound fluorescence or quenching; inactive means flat or rising ratio curve;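 further: potency means the concentration at half of the fitted maximal effect; % of control where 0% means no effect; nearly all actives have a fitted effect of over 45% in size; -100% = wells without RanGTP and RCC1; the record marks most hits as doubtful in a second field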
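Rango FRET biosensor (snurportin-1 IBB flanked by N-terminal EYFP and C-terminal CFP10) at 0.1 uM, with 0.25 uM importin beta in PBS, 1mM DTT, 0.02% Tween-20, 0.1% BSA. 0.6 uM Ran, 2mM GTP and 0.2 uM RCC1 were then added for 45 min at room temperature. Inhibition read as loss of FRET rise.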
Rango complex inh: qHTS Assay for Inhibitors of Rango (Ran-regulated importin-beta cargo) - Importin beta complex formation; Importin subunit beta-1 (Homo sapiens), Q14974; Rango CFP/YFP FRET sensor + importin beta, 45 min; Potency, µM (top dose mostly 92.2 µM), inactives show top-dose inhibition of complex formation; actives 0.031% (n = 340,000); active = rising FRET ratio curve, often small or poorly fitted; inconclusive = mostly compound fluorescence or quenching in the first reads; inactive = flat curves in all reads;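 further: potency means the concentration at half of the fitted maximal effect; 0% = DMSO wells and 100% = buffer wells lacking importin beta; nearly all actives have a fitted effect of over 15% in size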
Target sequence (Q14974 whole entry, looked up): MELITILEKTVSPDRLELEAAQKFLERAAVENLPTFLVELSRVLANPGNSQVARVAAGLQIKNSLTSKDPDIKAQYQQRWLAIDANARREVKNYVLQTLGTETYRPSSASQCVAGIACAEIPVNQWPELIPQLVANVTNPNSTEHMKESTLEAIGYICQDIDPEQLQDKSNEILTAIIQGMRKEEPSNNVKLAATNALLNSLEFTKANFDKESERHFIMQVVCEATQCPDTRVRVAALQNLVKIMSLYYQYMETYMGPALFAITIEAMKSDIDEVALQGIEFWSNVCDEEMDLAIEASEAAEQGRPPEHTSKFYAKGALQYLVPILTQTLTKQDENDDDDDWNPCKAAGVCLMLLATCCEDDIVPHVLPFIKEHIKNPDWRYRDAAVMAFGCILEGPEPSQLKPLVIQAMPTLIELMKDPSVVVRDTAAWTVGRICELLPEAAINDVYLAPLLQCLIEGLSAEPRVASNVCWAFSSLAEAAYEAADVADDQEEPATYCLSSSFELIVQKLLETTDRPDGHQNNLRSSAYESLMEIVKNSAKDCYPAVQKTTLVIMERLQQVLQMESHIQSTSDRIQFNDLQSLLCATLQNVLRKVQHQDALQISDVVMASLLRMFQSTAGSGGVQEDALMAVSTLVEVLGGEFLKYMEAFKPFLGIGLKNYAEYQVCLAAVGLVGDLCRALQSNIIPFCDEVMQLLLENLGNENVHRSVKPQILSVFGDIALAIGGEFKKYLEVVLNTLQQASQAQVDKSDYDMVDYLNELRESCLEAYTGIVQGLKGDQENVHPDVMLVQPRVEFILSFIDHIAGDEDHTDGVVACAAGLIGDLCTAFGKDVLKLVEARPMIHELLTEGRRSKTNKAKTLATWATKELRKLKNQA
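FRET biosensor Rango (snurportin 1 IBB between N-terminal EYFP and C-terminal Cerulean), 50 nM in PBS/1 mM DTT/0.02% Tween-20/0.1% BSA, preincubated 5 min RT with compound; 0.125 microM importin beta added, 45 min RT, CFP/YFP FRET ratio read.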
miR-21 reporter: qHTS Assay for Modulators of miRNAs and/orActivators of miR-21. Potency, µM (doses to about 38.3 µM), for the others: at the highest dose reporter change, positive = more light. HeLa miR-21 FLuc reporter, luciferase, 48 h. 340,000 tested, under 10 active; active = well fitted rising curve with a large enough effect; inconclusive = small, poorly fitted or top-dose-only effect; inactive = no such curve, though single readings can be large or run the other way;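 further: % of control where 0% means no effect; miR-21 action dims this reporter so a rising signal means less miR-21 action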
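Luminescence from a firefly luciferase reporter carrying a miR-21 binding site downstream, stably expressed under a CMV promoter in HeLa cells that make miR-21 endogenously, reports miRNA modulation after 48 h compound exposure up to approximately 40uM final.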
GLA inh pH 4.5: qHTS Assay for Inhibitors of Human alpha-Galactosidase at pH 4.5. Alpha-galactosidase A (Homo sapiens), P06280. purified enzyme, 4-MU-alpha-Gal fluorescence, pH 4.5. activity change, negative = inhibition, % at 105 µM. 230,000 tested, under 10 active; inconclusive = small, poorly fitted or top-dose-only inhibition, or a rising curve; inactive = flat fitted curve, though single readings scatter; no compound was filed as active;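 further: 0% = full activity with enzyme and -100% = basal without enzyme; dose as in the result columns while the protocol names 77 µM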
Numbers without * were called inactive; ? = inconclusive; · = no result given.

SMILES	Rango dissoc inh	Rango complex inh	miR-21 reporter	GLA inh pH 4.5
COc1ccc(SC[C@H](Cc2ccccc2)N2CC[C@@H](C)CCC2=O)cc1	-13%	-2.3%	·	·
CCCCc1nnc(NC(=O)c2ccc3[nH]c(=O)c(=O)[nH]c3c2)s1	-4%	-0.5%	-4%	·
CCOC(=O)c1ccc(CN(Cc2ccccc2)S(=O)(=O)c2cccc([N+](=O)[O-])c2)cc1	8%	-1.7%	-10%	-1
Clc1ccccc1CSc1ncn(-c2ccccc2)n1	0%	-0.6%	-73%	-9
COc1ccc(C(=O)CSc2nnc(CNc3ccc(C)cc3C)o2)cc1	-6%	3.6%	-7%	5
N#Cc1c(NC(=O)CSc2nc(-c3ccco3)cc(C(F)(F)F)n2)sc2c1CCCC2	0%	4.5%	-6%	2
COc1ccc(Cn2c(SCc3ccc(C)cc3)nc3cc(OC)c(OC)cc3c2=N)cc1Cl	0%	-3.1%	7%	-2
CN(C#N)c1nccc(-c2cccs2)n1	-12%	-2.0%	4%	-4
COc1ccc(C(=O)c2ccc(N3CCOCC3)cc2)c(OC)c1	4%	3.2%	-18%	6
CC(C)(C)C(=O)/C=c1\s/c(=C\c2ccc(-c3ccc([N+](=O)[O-])cc3)o2)c(=O)n1CC(=O)NC(N)=O	?	?	-10%	-2
CNC(=O)NC(=O)C(C)OC(=O)c1cc2c(s1)CCCCC2 (configuration not stated)	-8%	-2.6%	-4%	1
CC(CNCc1ccc2c(c1)OCO2)NCc1ccc2c(c1)OCO2 (configuration not stated)	-9%	0.3%	-15%	-2
Cc1ccc(-c2cnc(C3CC3)o2)cc1S(=O)(=O)Nc1ccccc1	13%	?	17%	·
COc1cc(C(=O)OCC(=O)NC23CC4CC(CC(C4)C2)C3)cc(OC)c1OC	1%	2.4%	·	·
COc1ccc(OC)c(CNc2ccc3c(c2)CCC3)c1	-23%	?	-47%	·
CCCCSc1nc(C)cc(SCC(=O)N/N=C/c2ccccc2)n1	-3%	0.4%	-1%	-1
CSc1nnc(-c2cc(-c3ccc(C)cc3)nc3ccccc23)o1	0%	2.1%	-1%	?
CCOc1ccc(S(=O)(=O)NCC2(N3CCCCC3)CCCCC2)cc1	-12%	-0.1%	·	·
Cc1ccc(C2=NN(C(=O)CSc3nc(N)cc(N)n3)C(c3ccco3)C2)cc1 (configuration not stated)	33%	2.8%	-12%	-13
Cc1c(Cl)c([N+](=O)[O-])nn1CCCC(=O)NC1CCCCC1	-1%	6.8%	-1%	-9
CCN(CC)C(=O)CSc1nnc(COc2ccccc2)n1CC	4%	1.8%	0%	2
CN(C(=O)c1ccc2c(c1)CCO2)C(C)(C)C	-2%	3.1%	2%	2
Cn1c(=O)[nH]c2c(Cl)nccc21	-5%	-3.8%	-3%	0
CC(C)CCn1c(Br)nc2c1c(=O)n(CC(N)=O)c(=O)n2C	3%	0.5%	-2%	-16

Gathered by group, those above containing a cyano group
SMILES	Rango dissoc inh	Rango complex inh	miR-21 reporter	GLA inh pH 4.5
N#Cc1c(NC(=O)CSc2nc(-c3ccco3)cc(C(F)(F)F)n2)sc2c1CCCC2	0%	4.5%	-6%	2
CN(C#N)c1nccc(-c2cccs2)n1	-12%	-2.0%	4%	-4

(next part)
SMILES	Rango dissoc inh	Rango complex inh	miR-21 reporter	GLA inh pH 4.5
Cn1c(-c2ccc([N+](=O)[O-])cc2)nc2ccccc21	-16%	-1.4%	-23%	1
CC(=O)Oc1ccc(NC(=O)CSc2ccccc2)cc1	-8%	-0.9%	-52%	-4
O=S1(=O)C=C(Sc2nc3ccccc3s2)c2ccccc21	-3%	-0.5%	?	3
Cc1nc2n[nH]c(N)c2c2c1CCCC2	0%	0.2%	-30%	-5
Cc1cccc(Oc2sc(C(=O)c3ccccc3)c(N)c2C#N)c1	2%	-2.0%	16%	-9
O=CN1Cc2ccccc2-c2ccccc2C1	-11%	-1.2%	-3%	·
CCC(=O)c1ccc(OCC(O)CN2CCN(S(=O)(=O)c3ccc(NC(C)=O)cc3)CC2)cc1 (configuration not stated)	17%	0.2%	10%	·
Cn1cnnc1SCNC(=O)C(F)(F)F	0%	-5.0%	-1%	2
C=CCN1C(=O)CSc2ccc(C(=O)N3CCC(C)CC3)cc21	-2%	3.8%	-6%	-2
CN1Cc2ccccc2N(CC(=O)NCc2ccccc2)C1=O	0%	-0.1%	-6%	4
Cc1ccc2nc(Cn3cc(C(F)(F)F)ccc3=O)cc(=O)n2c1	3%	2.2%	-6%	3
Cc1ccc(S(=O)(=O)N2[C@@H](c3ccc(F)cc3)C(C(=O)O)=CC[C@H]2c2cccc(C)c2)cc1	1%	?	·	·
COc1ccc(N2CCN(C(=O)c3ccc(CSc4ccccc4)cc3)CC2)cc1	0%	0.5%	-6%	18
C=CCn1c(C(C)NC(=O)c2cccs2)n[nH]c1=S (configuration not stated)	-2%	-0.5%	-5%	-11
CNC(=S)Nc1ccc(Nc2ccccc2)cc1	11%	-2.4%	-11%	5
NC(=O)c1ccc(NS(=O)(=O)c2ccc3ccccc3c2)cc1	-2%	-4.7%	0%	·
CC1(C)CC(=O)C(=Cc2cn(-c3ccccc3)nc2-c2ccc(Cl)cc2)C(=O)C1	18%	-3.1%	-10%	-7
CCOc1ccccc1N(CC(=O)NCc1ccco1)C(=O)CCC(=O)Nc1nccs1	-19%	?	8%	·
Cc1ccc(S(=O)(=O)N(C)C)cc1NC(=O)COC(=O)c1ccc2c(c1)OCCO2	-3%	-0.6%	-2%	8
CC(=O)c1ccc(OCCCC(=O)n2nnc3ccccc32)cc1	1%	-0.4%	-3%	2
CCn1nc(C(=O)N2CCN(Cc3nc4ccccc4s3)CC2)c2ccccc2c1=O	-7%	-3.6%	·	·
CCOC(=O)c1[nH]c2ccc(OCC)cc2c1CCCN1C(=O)c2ccccc2C1=O	9%	-1.6%	-7%	-7
CN1CCN(C(=O)CNC(=O)c2cccs2)CC1	-13%	0.3%	·	·
NC(=O)C1(N2CCCCC2)CCN(Cc2nc3ccccc3c(=O)[nH]2)CC1	3%	7.7%	-1%	1
COc1ccc(OC)c(-c2cn(S(=O)(=O)c3ccccc3)nc2N)c1	13%	0.9%	3%	-6
CC1Cc2ccccc2N1S(=O)(=O)c1cccc2nsnc12 (configuration not stated)	13%	1.5%	-4%	-5
COc1cc(-c2nnc(-c3cc(OC)c(OC)c(OC)c3)o2)cc(OC)c1OC	-22%	1.1%	-6%	4
CCCCC[C@@H](/C=C/C1C(=O)C=C[C@H]1C/C=C\CCCC(=O)OC)OC(C)=O (some centres not stated)	11%	-3.9%	·	·
COc1ccccc1NC(=O)c1cc(N)cc(C(=O)Nc2ccccc2OC)c1	0%	-0.2%	·	·
COc1ccc(C(C(=O)NC2CCCCC2)N(C(=O)Cc2c[nH]c3ccccc23)c2ccccc2C)cc1OC (configuration not stated)	-12%	0.4%	-8%	-9
COc1ccc(S(=O)(=O)N2CCCCC2)cc1NC(=O)c1c(F)cccc1Cl	-1%	0.5%	·	·
CC(C)c1ccc(NC2CCCN(C(=O)c3ccco3)C2)cc1 (configuration not stated)	-10%	-1.0%	-6%	·
Cc1[nH]c2c(Br)cccc2c1[C@H]1[C@@H](CC#N)C1(C)C	18%	4.8%	-37%	-11
Cc1ccccc1NS(=O)(=O)c1ccc(C(=O)NCC(c2ccco2)N2CCCCC2)cc1 (configuration not stated)	-7%	-0.5%	·	·
CC1CCCCC1NC(=O)CNC(=O)c1cccs1 (configuration not stated)	-8%	3.3%	·	·
COc1cc(/C=N/n2c(-c3n[nH]c4c3CCC4)n[nH]c2=S)cc(OC)c1O	-9%	-2.2%	-7%	3

An excerpt from above, reduced to Rango dissoc inh and GLA inh pH 4.5.
SMILES,Rango dissoc inh,GLA inh pH 4.5
COc1ccc(OC)c(-c2cn(S(=O)(=O)c3ccccc3)nc2N)c1,13%,-6
CC1Cc2ccccc2N1S(=O)(=O)c1cccc2nsnc12 (configuration not stated),13%,-5
COc1cc(-c2nnc(-c3cc(OC)c(OC)c(OC)c3)o2)cc(OC)c1OC,-22%,4
CCCCC[C@@H](/C=C/C1C(=O)C=C[C@H]1C/C=C\CCCC(=O)OC)OC(C)=O (some centres not stated),11%,·

Next part.
SMILES	Rango dissoc inh	Rango complex inh	miR-21 reporter	GLA inh pH 4.5
O=C(/C=C/NNC(=O)c1ccc(Cl)cc1)c1ccccc1	-22%	-2.0%	1%	-3
COc1ccc(S(=O)(=O)Nc2nccs2)cc1OC	-2%	0.0%	-2%	0
Cc1cc(NS(=O)(=O)c2ccc(NC(=O)/C=C/c3ccc(Br)cc3)cc2)no1	-2%	?	-12%	·
COc1ccc(C(=O)NCC(=O)OCC(=O)N2CC(C)CC(C)C2)cc1 (configuration not stated)	21%	1.5%	2%	5
CCOc1cc(NC(=S)NCC2CCCO2)c(OCC)cc1NC(=O)c1cccc(C)c1 (configuration not stated)	?	1.3%	-3%	-23
Cc1ccsc1/C=N/n1c(-c2cccnc2)n[nH]c1=S	8%	1.2%	-12%	-2
COC(=O)c1cn(NC(=O)Cc2cccc(OC)c2)c(=O)c2ccccc12	-1%	0.1%	-5%	-7
Cc1cc(C)cc(NC(=O)CSc2nnc(-c3ccccc3)n2N)c1	-1%	-0.7%	-1%	-5
CC1(C)Cc2c(C#N)c(NCC3CCCO3)nc(-c3ccco3)c2CO1 (configuration not stated)	?	?	2%	?
CCCC1OC2CC3C4CCC5=CC(=O)C=CC5(C)C4C(O)CC3(C)C2(C(=O)O)O1 (configuration not stated)	5%	-0.1%	-27%	·
Cc1oc2cc(O)ccc2c(=O)c1-c1ccccc1	-1%	0.6%	-33%	5
O=C(Nc1cc(C(F)(F)F)ccc1N1CCCC1)C1CCCO1 (configuration not stated)	-1%	-2.7%	·	·
O=C(O)CC(=O)Nc1cc(Cl)ccc1O	3%	0.4%	1%	4
O=C1N=C(N2CCCCC2)S/C1=C\c1ccccc1F	-3%	0.3%	-58%	·
O=C(c1cc2cc(Br)ccc2o1)N1CCCCC1	18%	2.2%	-59%	0
Cc1ccc(OC/C(=N\O)C(C)(C)C)c([N+](=O)[O-])c1	8%	0.9%	-32%	0
O=C(CSc1cnc2ccccc2n1)NC1CCCC1	0%	-0.3%	-1%	7
O=[N+]([O-])c1ccc(N2CCN(C(=S)NCc3ccc(Cl)cc3)CC2)cc1	-21%	?	6%	-1
C[N+]1(CCCCSc2ccc(O)cc2)CCCCC1	12%	-1.3%	-12%	1
O=S(=O)(N(Cc1ccccc1)[C@@H](CO)Cc1ccccc1)N(Cc1ccccc1)[C@@H](CO)Cc1ccccc1	22%	0.0%	·	·
NC(=O)C1(c2ccccc2)CCOCC1	1%	?	2%	-6
O=C(CN1C(=O)c2ccccc2S1(=O)=O)NCc1ccccn1	2%	1.8%	-8%	1
COc1ccc(C2=NN(c3ccccc3)C(c3cccs3)C2)cc1 (configuration not stated)	?	?	-4%	6
C=CCN(C(=O)CN1CCOCC1)c1nc(C)c(-c2ccccc2)s1	7%	-1.1%	-13%	3
Cc1ccc(OCCNC(=O)c2ccc3c(c2)OCO3)cc1	0%	3.2%	-49%	·

Exported field by field: 4 of the compounds above
O=C(CN1C(=O)c2ccccc2S1(=O)=O)NCc1ccccn1
  Rango dissoc inh: 2%; Rango complex inh: 1.8%; miR-21 reporter: -8%; GLA inh pH 4.5: 1
COc1ccc(C2=NN(c3ccccc3)C(c3cccs3)C2)cc1 (configuration not stated)
  Rango dissoc inh: ?; Rango complex inh: ?; miR-21 reporter: -4%; GLA inh pH 4.5: 6
C=CCN(C(=O)CN1CCOCC1)c1nc(C)c(-c2ccccc2)s1
  Rango dissoc inh: 7%; Rango complex inh: -1.1%; miR-21 reporter: -13%; GLA inh pH 4.5: 3
Cc1ccc(OCCNC(=O)c2ccc3c(c2)OCO3)cc1
  Rango dissoc inh: 0%; Rango complex inh: 3.2%; miR-21 reporter: -49%; GLA inh pH 4.5: ·

The list is partial; the hit share may differ from the screen's.
